High-throughput results (PubChem)
VDR inhibitor: Inhibitors of the vitamin D receptor (VDR): qHTS. AID 504847, 2011. 0.93% of 400,000 active. Potency, µM, for inactives: max response, negative = inhibition, actives largely listed as inhibitors. VDR-SRC2-3 peptide fluorescence polarization, 2 h. Vitamin D3 receptor (Homo sapiens), P11473; active = well fitted inhibition curve with a large enough effect; inconclusive = small, poorly fitted or top-dose-only effect, or another doubt; inactive = no such curve, though single readings can be large or run the other way; note: series mostly up to about 120 µM
Target sequence (P11473 whole entry, looked up): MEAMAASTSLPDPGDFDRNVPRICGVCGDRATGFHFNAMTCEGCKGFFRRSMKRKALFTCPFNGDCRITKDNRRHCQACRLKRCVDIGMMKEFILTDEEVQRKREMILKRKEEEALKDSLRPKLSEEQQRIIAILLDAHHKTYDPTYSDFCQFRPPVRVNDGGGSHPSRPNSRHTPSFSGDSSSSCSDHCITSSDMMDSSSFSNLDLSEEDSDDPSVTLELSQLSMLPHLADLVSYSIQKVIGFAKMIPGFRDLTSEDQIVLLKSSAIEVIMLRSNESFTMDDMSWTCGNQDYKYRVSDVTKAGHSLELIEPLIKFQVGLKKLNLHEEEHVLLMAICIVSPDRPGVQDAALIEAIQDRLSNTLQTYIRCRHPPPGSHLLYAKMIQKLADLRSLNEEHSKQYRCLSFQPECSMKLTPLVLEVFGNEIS
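Fluorescence polarization assay measuring small-molecule disruption of VDR binding to the coregulator peptide SRC2-3. Compounds were pin-transferred (23 nl) into the reagent mix and incubated 2 h at room temperature before reading.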
The depositor's hits bear a star; ? = inconclusive; & = joins results of further samples; [ ] = another dose, or the depositor's remark. % is set by controls: 0 for no effect and ±100 for the full control effect; potency is the fitted concentration of half-maximal effect.

SMILES	VDR inhibitor
Cc1ccccc1OCCCn1cc(C(=O)C(=O)N2CCOCC2)c2ccccc21	-9%
COc1cc2c(cc1OC)CC[N+](C)=C2	-3%
O=C(c1cc2c(s1)-c1ccccc1OC2)N1CCC2(CC1)OCCO2	-1%
CCS(=O)(=O)N1CCC(C(=O)N2CCC3(CC2)OCCO3)CC1	6%
COC(=O)C1=CO[C@@H](C)[C@@H]2CN3CC[C@@]4(C(=O)Nc5ccccc54)[C@@H]3C[C@H]12	-1%
CNC(=O)Oc1ccccc1OC(C)C	-13%&-2%
CCCCCc1nc2c(c(=O)c3ccccc3n2C)c(=O)n1C1CCCCCC1	?
O=C1NC(=O)N(c2cccc(F)c2)C(=O)/C1=C/c1ccc(N2CCOCC2)cc1	-27%
Cc1cc(OCC(=O)N2CCC(C(N)=O)CC2)c2c3c(c(=O)oc2c1)CCCC3	-8%
Cn1c(NN=O)nc2ccccc21	14%
Cc1ccc(OP(N)(=O)Oc2ccc(C)cc2)cc1	-12%
CN1C(=O)c2ccccc2Sc2ccc(C(=O)N3CCC4(CC3)OCCO4)cc21	10%
CCCCCSc1cc(OC)c(CCNC)cc1OC	3%
CN(C)C(=O)Oc1ccc(-c2cn3cc(C(F)(F)F)ccc3n2)cc1	-10%
O=c1[nH]c(=S)n(CCC2=CCCCC2)c(O)c1C=NCCCn1ccnc1	11%
Cc1ccc(C)c(CN2C(=O)c3ccccc3S(=O)(=O)c3ccc(C(=O)N4CCCCCC4)cc32)c1	?
COc1cc2c(cc1OC)[C@@]13CCN4CC5=CCO[C@H]6CC(=O)N2[C@H]1[C@H]6[C@H]5C[C@H]43	-11%
Cc1nn(Cc2ccc(Cl)cc2Cl)c(Cl)c1C(=O)Nc1ccc(OC(F)F)cc1	-4%
Cc1cc(C(=O)N=Nc2c(O)n(C)c3ccccc23)c(C)o1	-15%
COc1ccc(-c2nn(CCC#N)cc2C(=O)Nc2ccccc2Br)cc1	24%
O=C(COc1ccccc1[N+](=O)[O-])N1CCN(CCc2ccncc2)CC1	22%
COP(N)(=O)SC (configuration not stated)	1%
O=[N+]([O-])c1ccc(N2CCNCC2)cc1Sc1ccccn1	-23%
O=C1CN=C(c2cccc(Br)c2)c2cc(Br)ccc2N1	-13%
O=C(O)c1cccc2nc3ccccc3nc12	-28%
CC(C)COc1ccc(C2(C#N)CC[N+](C)(C)CC2)cc1	4%
CNCCc1nc(N)n[nH]1	0%
CCCCn1c(O)c(C(C)=NCCc2ccccc2)c(=O)[nH]c1=O	-11%
Cc1ccccc1-n1c(O)c(C=Nc2ccc(N(C)C)cc2)c(=O)[nH]c1=O	?
Nc1ccc(Sc2ccc(N)cc2)cc1	5%
Cc1ccc(C)c(Cn2c(C(=O)O)c(C=O)c3ccccc32)c1	-10%
CN1CC(C(=O)c2ccc([N+](=O)[O-])cc2)C(c2ccc(Cl)cc2)C1 (configuration not stated)	-16%
COc1cccc(-n2c(/C=C/c3ccccc3O)nc3ccccc3c2=O)c1	-23%
CCC1(c2ccccc2)C(=O)NC(=O)NC1=O	3%&2%
CCN(CC)C(=O)c1ccc(NC(=O)c2cc(-n3cnnc3)ccc2Cl)cc1	-3%
CCOP(=S)(OCC)Oc1cc(C)nc(N(CC)CC)n1	?
Cc1ccccc1[N+](=O)[O-]	8%
C[C@H](NC(=O)CCC(=O)N1C[C@H]2C[C@H](C1)c1cccc(=O)n1C2)c1ccccc1	-10%
O=C1NC(=O)C(CCc2ccccn2)(Cc2ccc3c(c2)OCO3)C(=O)N1CCc1ccccc1 (configuration not stated)	-10%
O=C(O)c1cc(Oc2ccc([N+](=O)[O-])cc2)cc(Oc2ccc([N+](=O)[O-])cc2)c1	45µM*

Some of the entries above, reformatted.
Molecule | VDR inhibitor
Cc1ccccc1-n1c(O)c(C=Nc2ccc(N(C)C)cc2)c(=O)[nH]c1=O | ?
Nc1ccc(Sc2ccc(N)cc2)cc1 | 5%
Cc1ccc(C)c(Cn2c(C(=O)O)c(C=O)c3ccccc32)c1 | -10%
CN1CC(C(=O)c2ccc([N+](=O)[O-])cc2)C(c2ccc(Cl)cc2)C1 (configuration not stated) | -16%

(further entries)
SMILES	VDR inhibitor
Cc1ccc(C)c(NC(=S)NCCc2cnc[nH]2)c1	5%
CC(C)CCCC1(C)C=Cc2c(O)c3c(c(CCC(C)C)c2O1)OC12C(CC4CC1C(C)(C)OC2(CCC(C)C(=O)O)C4O)C3=O (configuration not stated)	-13%
CCCCOP(=O)(OCCCC)/C(C#N)=C(/C)O	1%
CC(=O)NC1CC2CCCC(C1)N2 (configuration not stated)	-11%
CC1(C)CN(S(=O)(=O)OCC(Cl)(Cl)Cl)C(=O)N1	7%
CCc1ccccc1NC(=O)c1cccn(Cc2ccccc2F)c1=O	13%
CCCCC/C=C\C/C=C\C/C=C\CCCCC(=O)NCCO	1%
COC(=O)C1=C(c2ccc(C(C)=O)cc2)C[C@@H]2CC[C@H]1N2C(=O)NC(C)C	-11%
COC1=C[C@@H]2C3=C([C@@H]2C1=O)[C@@H](NC(C)=O)CCc1cc(OC)c(OC)c(OC)c13	-27%
CSCC[C@H](NC(=O)[C@@H](NC(=O)CNC(=O)[C@H](CC(=O)O)NC(=O)[C@H](CCSC)NC(=O)[C@@H](N)Cc1ccc(O)cc1)[C@@H](C)O)C(=O)N[C@@H](CO)C(=O)N[C@@H](CCC(N)=O)C(=O)N[C@H](C(=O)O)C(C)C	5%
Cc1cccc(-n2c(/C=C/c3ccccn3)nc3ccccc3c2=O)c1	-7%
CN1CCCN(C(=O)COc2ccc(Br)cc2)CC1	-16%
CC(CC(C#N)(c1ccccc1)c1ccccc1)N1CCCCC1 (configuration not stated)	-6%
O=C(CCc1nnc2ccc(NCc3ccccc3)nn12)N1CCC2(CC1)OCCO2	0%
COC(=O)C1=C(c2ccc(OC(F)(F)F)cc2)C[C@@H]2CC[C@H]1N2C(=O)NCc1ccc(F)cc1	-8%
C[C@]12CCC(=O)C=C1CCC1C2CC[C@@]2(C)C1CC[C@@]2(O)CC#N (some centres not stated)	1%
CCOC(=O)CSc1ccc(C(=O)N2CCC3(CC2)OCCO3)cc1[N+](=O)[O-]	-4%
Cc1ccc(NC(=O)Cn2cc(C(=O)c3ccccc3)c3ccccc32)cc1	6%
CCc1nc2ccccc2c(=O)n1-c1cccc(OC)c1	3%
C=C1[C@H]2CC[C@H]3[C@]4(C)C[C@H](O[C@@H]5OC(CO)[C@@H](OSOOO)[C@H](OS(=O)(=O)O)[C@H]5OC(=O)CC(C)C)C[C@@H](C(=O)O)[C@H]4CC[C@]3(C2)[C@H]1O (some centres not stated)	-26%
CC(=O)NN1C(=O)c2ccccc2NC1c1cccnc1 (configuration not stated)	-24%
N[C@@H]1CC[C@@]2(O)[C@H]3Cc4ccc(O)c5c4[C@@]2(CCN3CC2CC2)C1O5 (some centres not stated)	-28%
COc1cccc(NP(=O)(Oc2ccccc2Cl)Oc2ccccc2Cl)c1	-4%
Cc1ccc(-c2nc3ccccc3c(=O)n2-c2ccc(O)cc2)cc1	3%
COP(=O)(OC)C(Nc1ccccc1)c1ccccc1 (configuration not stated)	-16%
Cc1c(N=Nc2c(O)[nH]c(=O)[nH]c2=O)c(=O)n(-c2ccccc2)n1C	0%
COC(=O)C(O)(c1ccc(NC(=O)Oc2ccccc2)cc1)C(F)(F)F (configuration not stated)	-19%
COc1ccc(C)cc1NC(=O)N(Cc1ccc2c(c1)OCO2)C1CCN(Cc2ccccc2)CC1	6%
NCC(O)c1ccc(O)cc1 (configuration not stated)	-8%&0%&5%&-9%
Cn1c(O)c(C(c2ccncc2)c2c(O)n(C)c(=S)n(C)c2=O)c(=O)n(C)c1=S	?
COc1cccc(C2CCN(CC(=O)Nc3cc(Cl)ccc3OC)CC2O)c1 (configuration not stated)	-5%
O=C1CC(c2ccccc2Br)c2c(c3ccccc3oc2=O)O1 (configuration not stated)	13%
CC1(C)CN2C(c3ccc(Cl)cc3)N2C1 (configuration not stated)	3%
COc1cc2nc(CN3CC=C(c4ccccc4)CC3)[nH]c(=O)c2cc1OC	5%
Nc1c(C(=O)Nc2ccc(OC(F)(F)F)cc2)sc2nc3c(cc12)N1CCC3CC1	9%
O=C(c1ccc2nc(-c3ccco3)c(-c3ccco3)nc2c1)N1CCC2(CC1)OCCO2	?
O=C(O)CSC(=S)N1CC2CC(C1)c1cccc(=O)n1C2 (configuration not stated)	3%
c1ccc2c(c1)CSc1ccccc1C2C1=NCCN1 (configuration not stated)	-16%
CN(C)C(=O)Nc1ccc(-n2nc(C(C)(C)C)oc2=O)c(Cl)c1	-1%
COc1ccc(C(=O)OC2C[C@H]3CC[C@@H](C2)N3O)cc1OC (some centres not stated)	13%

Part of the list above, set out differently:
| SMILES | VDR inhibitor |
| --- | --- |
| COc1ccc(C)cc1NC(=O)N(Cc1ccc2c(c1)OCO2)C1CCN(Cc2ccccc2)CC1 | 6% |
| NCC(O)c1ccc(O)cc1 (configuration not stated) | -8%&0%&5%&-9% |

Following part:
SMILES	VDR inhibitor
O=C(Nc1ccccc1)N1CCC2(CC1)CCN(C(=O)Oc1ccccc1)CC2	5%
CN(C)CCCN=Cc1c(O)n(CCc2ccccc2)c(=O)[nH]c1=O	-3%
CNC(=O)OCC[N+](C)(C)C	9%
COc1cc2occc2c2oc(=O)ccc12	-6%&1%&9%
O=C(c1cc(-c2ccc(Cl)cc2)n(-c2ccc(Cl)cc2Cl)n1)N1CCOCC1	-11%
Cc1ccc(-n2c(O)c(/C=N/c3ncc(Br)cc3Br)c(=O)[nH]c2=O)cc1	2%
C=CCN1C(=O)NC(=O)/C(=C/c2ccoc2)C1=O	-12%
CN1CCC2(O)OCCCC2C1 (configuration not stated)	-14%
CCOc1cc(C(=O)N2CCC3(CC2)OCCO3)cc(OCC)c1OCC	-13%
C[N+]1(C)CCOC(O)(c2ccc(-c3ccc(C4(O)C[N+](C)(C)CCO4)cc3)cc2)C1 (configuration not stated)	-4%&0%&-9%
Cc1ccc(C2(O)CCN3CCCCC32)cc1 (configuration not stated)	-7%
CC(C)C[C@H]1C(=O)N2CCC[C@@H]2[C@@]2(O)O[C@](NC(=O)[C@@H]3C=C4c5cccc6[nH]cc(c56)C[C@@H]4N(C)C3)(C(C)C)C(=O)N12	?
CCC(=NCCCO)c1c(O)n(-c2ccc(OC)cc2)c(=O)[nH]c1=O	-8%
COC(=O)c1cccc(N=Cc2c(O)n(Cc3ccc(F)cc3)c(=O)[nH]c2=O)c1	7%
CC(=O)Oc1ccc2c3c1OC1[C@@H](OC(C)=O)C=C[C@H]4[C@H](C2)N(C)CC[C@]314 (some centres not stated)	2%
COC(=O)C1=C(c2cc3ccccc3s2)C[C@@H]2CC[C@H]1N2C(=O)NCc1ccc(F)cc1	-3%
NC(N)=Nc1ccc2[nH]c3c(c2c1)C[C@]1(O)[C@@H]2Cc4ccc(O)c5c4[C@]1(CCN2CC1CC1)[C@@H]3O5	6%
CC(=O)O[C@@]12CO[C@@H]1C[C@H](O)[C@@]1(C)C(=O)[C@H](O)C3=C(C)[C@@H](O)C[C@@](O)([C@@H](OC(=O)c4ccccc4)C12)C3(C)C (some centres not stated)	-6%
C=CCn1c(O)c(C=Nc2ccc(N(CC)CC)cc2)c(=O)[nH]c1=O	-41%
O=C(Nc1nccs1)C(Cl)(Cl)Cl	-13%
CCCCn1c(O)c(C(CC)=NCc2ccc3c(c2)OCO3)c(=O)[nH]c1=O	-9%
Cc1cc2ccccn2c1C(C[N+](=O)[O-])c1c(F)cccc1Cl (configuration not stated)	-10%
CCOC(=O)c1c(-n2c(C)cc(C=C3C(=O)NC(=S)NC3=O)c2C)sc2c1CCCC2	?
CC12CCC(=O)C=C1CC(O)C1C2CCC2(C)C1CCC2(C)O (configuration not stated)	-1%
COC(=O)C1=C(c2ccc(C(C)=O)cc2)C[C@@H]2CC[C@H]1N2C(=O)N1CCCC1	-2%
Cc1cc(NC(=O)c2cccn(Cc3cccc(Cl)c3)c2=O)no1	-2%
O=c1[nH]c(O)c(C=Nc2ccc(F)c(Cl)c2)c(=O)[nH]1	-5%
CCOc1ccc(NC(=O)c2cccn(Cc3cccc(Cl)c3)c2=O)cc1	-10%
Cc1cc(C)[n+](C2C3CC4CC(C3)CC2C4)o1 (configuration not stated)	-9%
O=C(c1ccccc1)c1cn(CC(=O)N2CCOCC2)c2ccccc12	-1%
COc1ccccc1N1CCN(CCc2c[nH]c3cc4c(cc23)OCO4)CC1	-12%
Cc1nc(Cl)sc1C(=O)Nc1ccc2ccccc2c1	1%
Clc1cccc(N2CCNCC2)c1Cl	-10%
Cc1nc2ccccc2c(=O)n1-n1cnnc1	-2%
COC(=O)C[C@]1(C(=O)OC)CN(C#N)N(c2ccc(Cl)cc2)C12c1ccccc1-c1ccccc12	20µM*
CCn1ccnc1CN1CCCC(C(=O)c2ccc(OC)cc2OC)C1 (configuration not stated)	12%
CCOC(=O)[C@]12Cc3ccccc3[C@H]1N(Cc1ccccc1)C(=O)c1ccccc12	-3%
CCOC(=O)C1(CCCc2ccccc2)CCN(C2CCC2)CC1	9%
COc1ccc(O)c2c(=O)c3c(OC)cc4c(c3oc12)C1C=COC1O4 (configuration not stated)	2%
CCC1CN1P(=O)(c1ccccc1)N1CC1CC (configuration not stated)	0%
O=C(Nc1ccccc1)Oc1ccccc1	30%[activator]
CNC(=O)Oc1cccc2c1OC(C)(C)C2	6%
Cc1cc(C=C2C(=O)N(C)C(=S)N(C)C2=O)c(C)n1C1CCCCC1	-2%
CN1C(=O)C(=Cc2ccc(Sc3ccccc3)o2)C(=O)N(C)C1=O	?

A portion from further up, as a working copy:
SMILES	VDR inhibitor
O=C(c1ccccc1)c1cn(CC(=O)N2CCOCC2)c2ccccc12	-1%
COc1ccccc1N1CCN(CCc2c[nH]c3cc4c(cc23)OCO4)CC1	-12%
Cc1nc(Cl)sc1C(=O)Nc1ccc2ccccc2c1	1%
Clc1cccc(N2CCNCC2)c1Cl	-10%
Cc1nc2ccccc2c(=O)n1-n1cnnc1	-2%

Not all compounds are listed; the hit share may differ from the screen's.
